Tgondii IFNg = blocks Toxoplasma gondii growth in the presence of IFN-gamma | 3.8% of 69,000 active | Toxoplasma gondii growth in IFN-gamma-treated host cells; stronger effect = lower value; reference of the scale not given here | activity change, negative = inhibition, %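 (about 20 µM by stock and volumes)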;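 active = below -70%; inconclusive = fit judged invalid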;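 also: host cells are HeLa cells infected with Toxoplasma gondii; parasite growth read as luciferase light; one replicate is shown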
* marks the source's active call; other numbers are inactive results; i = inactive; ? = inconclusive; & = joins results of further samples. This is a subset; the hit share may differ from the screen's.

SMILES	Tgondii IFNg
COc1ccc(C[C@H]2CCc3cnnn3COC[C@H](CC(C)C)NC2=O)cc1	16
C=CCO[C@@H]1CCN(c2cc(OC)ncn2)[C@H]1Cc1cnn(C)c1	-51
C[C@@H]1CN([C@H](C)CO)C(=O)c2cc(NC(=O)Nc3cccc4ccccc34)ccc2O[C@@H](C)CCCCO[C@@H]1CN(C)Cc1ccc(C(F)(F)F)cc1	254
CN(C)C(=O)COCC1CC2(CCN(Cc3nccs3)CC2)CO1 (stereo not drawn)	-33
Cc1nccn1CCCC(=O)Nc1ccc(N2CCOCC2)c(F)c1	86
COCC(=O)N1CCC2(CC1)C(=O)N(Cc1cccnc1)CCN2C	0
Cc1ccc(S(=O)(=O)Oc2cc(=O)n(C)c3c2c(=O)n(C)c(=O)n3C)cc1	50
COc1ccc(NC(=O)CC(=O)N2CCC(Oc3ccc(C)cc3)CC2)c(OC)c1	-10
CCOC(=O)Cc1c(C)nc2nc[nH]n2c1=O	7
CS(=O)(=O)N1[C@H](CO)[C@@H](c2ccccc2)C12CN(C(=O)c1ccccc1F)C2	4

The list goes on.
SMILES	Tgondii IFNg
COc1ccc(N2CC3(CCN(c4ccc(C)nn4)C3)CC2=O)cc1 (stereo not drawn)	7
CC(C)CCN1C[C@@H]2N(c3ncccn3)CCC[C@@]2(C(=O)NCC2CC2)C1	14
Cc1cc(Nc2ccc(Cl)cc2)nc(SCc2ccc(Cl)cc2Cl)n1	-66
COC(=O)C1=NN(c2cccc(C(F)(F)F)c2)C(=O)C1	-26
Cc1c(NCc2cccnc2)cccc1C(=O)N[C@@H]1CNC[C@H]1O	12
CCc1ccccc1NC(=O)c1cccc(NC(=O)COC(C)C)c1	98
COC(=O)Cc1cccn1C	22
O=C(NCC1CC1)[C@@H]1CCS(=O)(=O)[C@H]2CN(c3ncccn3)C[C@@H]12	1
COc1cccc(C(=O)c2sc3nsc(SCc4ccc(F)cc4)c3c2N)c1	43
O=S(=O)(c1ccc(F)cc1)N1CCC(c2cc3ncccc3[nH]2)CC1	-14

Continued; it opens with the two that closed the last part.
SMILES	Tgondii IFNg
COc1cccc(C(=O)c2sc3nsc(SCc4ccc(F)cc4)c3c2N)c1	43
O=S(=O)(c1ccc(F)cc1)N1CCC(c2cc3ncccc3[nH]2)CC1	-14
C[C@@H]1CCCCO[C@@H](CN(C)C(=O)C2CCCCC2)[C@H](C)CN([C@H](C)CO)C(=O)c2cc(NS(=O)(=O)c3ccccc3)ccc2O1	21
Cc1cccc(-c2nc(C)c(CCNS(=O)(=O)c3cccc([N+](=O)[O-])c3)s2)c1	i
CCN(CC)CCCCC(NC(=O)c1ccc([N+](=O)[O-])cc1)c1ccccc1 (stereo not drawn)	14
CCO[C@H]1CCN(C(=O)C2CC=CC2)[C@H]1Cc1ccncc1	-11
Cc1ccc2c(c1)NC1(CCN(S(=O)(=O)c3cc(C)ccc3C)CC1)c1cccn1-2	3
CN(Cc1n[nH]c2c1CCCCC2)C(=O)c1cc(-c2cccn2C)n[nH]1	-63
CCc1nc(CNC(=O)C(CC)n2cc(C(C)=O)c3ccccc32)cs1 (stereo not drawn)	-43
Cc1ccccc1N1CCN(C(=O)c2csc(-c3ccc(N4CCCC4)nc3)n2)CC1	8
COCC(=O)NC1COCCC12CCN(S(C)(=O)=O)CC2 (stereo not drawn)	-1
Cc1ccc(NC(=O)C(=O)NCCc2sc(-c3ccccc3)nc2C)cc1Cl	-62

Continued.
SMILES	Tgondii IFNg
Cc1oc(-c2ccc(C(=O)NCc3ccccn3)cc2)nc1CN1CCN(c2ccccc2)CC1	-29
O=C(CCCCCN1C(=O)c2cccc3cccc(c23)C1=O)NO	-84*
c1cnc(NC2COC3(CCCN(c4ncccn4)C3)C2)nc1 (stereo not drawn)	i
CC(C)C1N=C2c3ccccc3N=C(SCc3cc(=O)n4cc(Br)ccc4n3)N2C1=O (stereo not drawn)	-59
O=C(Nc1ccc(-c2nc(-c3ccccc3)co2)cc1)Nc1cccc(Cl)c1	-11
CSc1nccc(-c2ccc(O)cc2)n1	-78*
COC[C@@H]1CN(C)C(=O)[C@H]2CCN(S(=O)(=O)N(C)C)CC[C@@H]12	-7
COc1cccc(-c2noc(-c3c(O)c4ccccc4n(C)c3=O)n2)c1OC	32
CCc1noc(CN(CC)C(=O)c2ccccc2N2CCCC2)n1	-3
CCc1ccc(S(=O)(=O)NCCc2sc(-c3ccc(OC)c(OC)c3)nc2C)s1	341

Next results.
SMILES	Tgondii IFNg
Cc1nc(-c2ccc(Cl)cc2)sc1-c1ccnc(SCc2ccccc2)n1	-62
CC(C)CNc1nc2c(cc1C(=O)N(C)C)CCN(CCc1ccccc1)CC2	-50
Cc1nc(-c2ccc(Cl)cc2)sc1CCNC(=O)C(=O)Nc1cc(F)ccc1F	186
c1cc(C2CN(c3nccc4occc34)C2)ccn1	3
CCOc1ccc(CNc2nnnn2C)cc1OC	0
Cn1cc(-c2csc(NC(=O)c3cnc(-c4ccc(Cl)cc4)nc3)n2)cn1	23
Cc1cccc(-c2nc(Cn3nnc(-c4nc(-c5cccs5)no4)c3C)c(C)o2)c1	1
CCCC(=O)N1CCC(NC(C)c2ncccc2C)CC1 (stereo not drawn)	-3
CCn1ncc(C(=O)NCC(c2sccc2C)N(C)C)c1C (stereo not drawn)	21
CC(C)CN1CCC2(CC1)CN(C(=O)c1cscn1)C2	-37

Additional results:
SMILES	Tgondii IFNg
O=C(Cn1cnc2c([nH]c3ccccc32)c1=O)NCc1ccncc1	24
CCOCC12CCCOC1CCN(S(=O)(=O)c1cccnc1)C2 (stereo not drawn)	-18
CN(C)C(=O)c1cccc(-c2ccc3c(c2)[C@@H]2[C@@H](CCN2C(=O)c2cnccn2)[C@@H](CO)N3)c1	14
Cc1cccc(CN(Cc2ccccc2)C(=O)c2ccc3nc(C(F)(F)F)[nH]c3c2)n1	5
O=S(=O)(C1CC1)N1CCOC2(CCCN(c3cccc(F)c3)C2)C1 (stereo not drawn)	-10
c1cc(-c2cnccn2)c2cccnc2c1	-49
Cc1ccccc1N1CC2(CCN(Cc3cncn3C)C2)CC1=O (stereo not drawn)	4
Cn1cnc2c(N3CCOCC3)nc(C3CCN(C(=O)c4cccnc4)CC3)cc21	2
COc1ccc(CC(=O)Nc2ccc(-c3cnco3)cc2)cc1OC	71
CCOC(=O)c1cc(C(=O)OC)c(C)nc1N1CCCN(Cc2ccc(F)cc2)CC1	-77*

Later entries.
SMILES	Tgondii IFNg
CCC(C)NC(=O)Cn1c(=O)ccc2cc(S(=O)(=O)N3CCC(C)CC3)ccc21 (stereo not drawn)	109
Cc1[nH]c2ccccc2c1CC(=O)NC(C)c1nncn1C(C)C (stereo not drawn)	-2
Cc1cccc(-c2nnc(-c3nc(Nc4ccc(F)cc4)c4ccccc4n3)o2)c1	73
COc1ccc(NC(=O)C2CCN(c3cnccn3)CC2)cc1OC	-25
Cn1cc(-c2ccc3ncc(Cc4ccc5ncccc5c4)n3n2)cn1	-67
COc1ccc(-c2noc(-c3c(O)c4ccccc4n(C)c3=O)n2)cc1	8
CC1=CC[C@@H]2CN(C(=O)c3cc(C)nc4c3c(=O)[nH]c(=O)n4C)C[C@@H]2C1	6
CC(=O)c1ccc(NC(=O)c2ccc(N3C(=O)CCC3=O)cc2)cc1	-23
CCOC(=O)c1cnc2c(-c3ccccc3)c(C(F)(F)F)sc2c1N1CCOCC1	-93*
COc1ccc2c(c1)NC1(CCN(C(=O)CC3CCCCC3)CC1)c1cccn1-2	3

Going on with the list.
SMILES	Tgondii IFNg
CCC(C(=O)N1CCC2(CC1)Nc1cc(OC)ccc1-n1cccc12)c1ccccc1 (stereo not drawn)	56
CC1CCCc2c1nc(N)c(C#N)c2-c1ccccc1 (stereo not drawn)	-11
CCS(=O)(=O)N1[C@H](C#N)[C@@H](c2ccc(-c3cccc(F)c3)cc2)[C@@H]1CO	11
Cc1cccc(Nc2nc(-c3nnc(-c4ccccc4)o3)nc3ccccc23)c1	0
CC(C)CN1C(=O)N(C2Cc3ccccc3C2)C(=O)C12CCN(Cc1nc3ccccc3n1C)CC2	-8
CCOc1ccc(-c2cc3c(=O)n(Cc4nc(-c5ccc(C)cc5)oc4C)ccn3n2)cc1	-19
Cc1cc(Oc2ccc(C(F)(F)F)cc2NS(C)(=O)=O)cc(C)c1Cl	?
Cc1cnc(C)c(N2CCN(Cc3ccc(C4CCCO4)s3)CC2)n1 (stereo not drawn)	-6
O=C(Cn1c(=O)cc(C(=O)N2CCCCC2)c2ccccc21)Nc1cccc(C(F)(F)F)c1	-18
COCC(=O)N1[C@H](C#N)[C@H](c2ccccc2-c2cccc(C)c2)[C@@H]1CO	-44

Seven records drawn at random from those above:
SMILES	Tgondii IFNg
c1cnc(NC2COC3(CCCN(c4ncccn4)C3)C2)nc1 (stereo not drawn)	i
COc1ccc(CC(=O)Nc2ccc(-c3cnco3)cc2)cc1OC	71
CCOc1ccc(-c2cc3c(=O)n(Cc4nc(-c5ccc(C)cc5)oc4C)ccn3n2)cc1	-19
CS(=O)(=O)N1[C@H](CO)[C@@H](c2ccccc2)C12CN(C(=O)c1ccccc1F)C2	4
c1cc(C2CN(c3nccc4occc34)C2)ccn1	3
CC(C)C1N=C2c3ccccc3N=C(SCc3cc(=O)n4cc(Br)ccc4n3)N2C1=O (stereo not drawn)	-59
CCO[C@H]1CCN(C(=O)C2CC=CC2)[C@H]1Cc1ccncc1	-11

Continuation:
SMILES	Tgondii IFNg
COc1ccc([C@@H](C)NC(=O)c2cccc(C#CC(C)(C)O)c2)cc1	53
CC(C)CN(Cc1ccco1)C(=O)CN1CCCN(C)CC1	-49
Cc1noc(C)c1C(=O)N(C)C[C@@H]1OCc2ccccc2-c2ccccc2C(=O)N([C@H](C)CO)C[C@H]1C	-1
CC(C)OC(=O)C1C2C=CC3(CN(CC4CCCO4)C(=O)C13)O2 (stereo not drawn)	8
C[C@@H]1CN([C@H](C)CO)C(=O)c2cccc(NC(=O)c3ccncc3)c2O[C@H]1CN(C)Cc1ccc2c(c1)OCO2	-10
C[C@H](CO)N1C[C@H](C)[C@H](CN(C)S(=O)(=O)c2ccc(Cl)cc2)Oc2ccc(NS(=O)(=O)c3cccs3)cc2C1=O	-34
CCN1CCN(C)C2(CCN(C(=O)C3CCCO3)CC2)C1=O (stereo not drawn)	-54
COCCNC(=O)C[C@@H]1CC[C@H]2[C@@H](COC[C@@H](O)CN2C(=O)c2cc(Cl)cc(Cl)c2)O1	1
O=c1[nH]nc(SCc2ccc(Cl)cc2)n1C1CC2C=CC1C2 (stereo not drawn)	24
CCc1nc(CNC(=O)c2cc(-c3cccnc3)nc3ccc(C)cc23)no1	11

(list continues)
SMILES	Tgondii IFNg
CC(C)CN1CCN(C)C2(CCN(Cc3cnn(C)c3)CC2)C1=O	0
CCC(=O)Nc1cccc(OCC(=O)NC(C)c2ccc(C)cc2C)c1 (stereo not drawn)	-27
COC(=O)[C@@H]1N[C@@H]2c3ccc(C4=CCCCC4)c(=O)n3C[C@@H]2[C@H]1CO	-46
COc1ccc(-c2csc(NC(=O)c3cn4cccc(C)c4n3)n2)c(OC)c1	4
OC(CN1CCOCC1)c1ccc(-c2ccc(F)cc2Cl)cc1 (stereo not drawn)	-12
Cc1nsc(NC(=O)N2CCCN(C3CCCCC3)CC2)n1	4
Cc1nonc1CN(C)Cc1cnc2c(-c3ccccc3)cnn2c1	187
O=S(=O)(c1ccccc1)N1CCC2(CCCN2Cc2cccc(Cl)c2)C1 (stereo not drawn)	-8
C=C1[C@H]2CC[C@@]3(C)[C@H](c4ccoc4)OC(=O)C[C@]13O[C@H]1C[C@H](O)C(C)(C)[C@H](CC(=O)OC)[C@]12C	10
Cc1cccc(NC(=O)c2cc(-c3cnc(-c4cccnc4)nc3)cn2C)c1	-33

Following part
SMILES	Tgondii IFNg
CSCC[C@H](NC(=O)NC1CCCC1)C(=O)O	11
CC1(C)CC2(CCO1)OC(=O)CC2C(=O)Nc1ccccc1Cl (stereo not drawn)	24
COc1cccc(-c2nc(C)c(-c3ccc(SCc4cccnc4)nn3)s2)c1	324
CCOC(=O)CSCCC1NC(C(=O)O)CS1 (stereo not drawn)	23&9
CCOC(=O)c1cc(C(C)(C)C)n(CCSC)c1C	-20
COc1ccc(C(=O)Nc2ccc3c(c2)C(=O)N(C)[C@H]2CC[C@@H](CC(=O)NCC4CC4)O[C@H]2CO3)cc1	-31
Cn1ccc(C(=O)N2CCCC3(CC(Oc4cccnc4)CO3)C2)n1 (stereo not drawn)	-1
CC(NC(=O)c1cccs1)c1ccccc1 (stereo not drawn)	61
CCCn1nc(C)c(CNC2CCN(CC(C)C)CC2)c1C	-16
COc1ccc(-c2csc(NC(=O)CSc3nc(SC)ns3)n2)cc1	162

Some values from the entries so far:
Result for CC(C)C1N=C2c3ccccc3N=C(SCc3cc(=O)n4cc(Br)ccc4n3)N2C1=O (stereo not drawn) in Tgondii IFNg: -59
Result for COc1ccc(-c2noc(-c3c(O)c4ccccc4n(C)c3=O)n2)cc1 in Tgondii IFNg: 8
Result for CCC(C(=O)N1CCC2(CC1)Nc1cc(OC)ccc1-n1cccc12)c1ccccc1 (stereo not drawn) in Tgondii IFNg: 56

Following part
SMILES	Tgondii IFNg
Cn1c2c(ccc1=O)CC(NS(=O)(=O)c1ccc(F)cc1)CC2 (stereo not drawn)	-64
CC(C)N1CC2CCC(C1)C2C(=O)Nc1cccc(F)c1 (stereo not drawn)	47
O=C(c1cccs1)N1Cc2ccnn2CC(COCC2CC2)C1 (stereo not drawn)	-45
CNC(=O)C1OC(n2cnc3c(NCc4cccc(I)c4)ncnc32)C(O)C1O (stereo not drawn)	-33
CCCN1[C@H](C(=O)OC)[C@@H](CO)[C@@H]2Cn3c(ccc(-c4cccc(OC)c4)c3=O)[C@@H]21	3
c1cnc(OC2CCN(Cc3cnn(C4CCCCC4)c3)CC2)cn1	2
Nc1ncnc2c1ncn2[C@@H]1O[C@H](CO)[C@@H](O)[C@@H]1O	-68
CCOCCN1CC[C@@H]2[C@H](CC1)C(=O)NC[C@@H]2c1nc(C)no1	-5
O=C(c1ccc(-c2ccccc2)c(F)c1)C1CCCN(C(=O)c2cncs2)C1 (stereo not drawn)	11
CNC(=O)Cc1ccc(-c2cccnc2OC)cc1	7
CC(C)[C@@H]1COCc2cn(nn2)CCC[C@@H](C)C(=O)N1	-20
